Screening results as filed in PubChem.
Bead autofluor: counter-screen for toxin protease inhibitors: compound fluorescence; compound autofluorescence counterscreen, microsphere flow cytometry; stronger effect = higher value; fluorescence intensity (test concentration not listed); 360,000 tested, 3.1% active; AID 624483;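 active = at least 3 SD above the mean of all compounds, about 16000 in these data; inconclusive = too few beads counted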;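 also: 100 nL of 1 mM stock went into each well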
PrP UTR inh: inhibition of PrP 5' UTR reporter expression; cell-based PrP 5' UTR mRNA reporter, plate reader; inhibition, % (test concentration not listed); 340,000 tested, 0.35% active;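 active = every replicate at 50% or more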;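 also: 0 = median of the neutral control wells; tested in H4 reporter cells; numbers are from one replicate; inactives centre near -14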
BJeLR lethal: MLPCN primary cell-based screen for lethality selective to Ras in HRASV12 cells; BJeLR (HRASV12) viability, CellTiter-Glo ATP luminescence, 48 h; reference of the scale not given here; inhibition, % (no concentration beside the values); AID 1554, 2009; 300,000 tested, 0.17% active;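 active = replicate mean above 50%; inconclusive = above 50% but judged a plate artefact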;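 also: 50 nL library stock added to about 25 µL; numbers are from one replicate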
Sa RN4220 lethal: growth inhibition of S. aureus RN4220, primary screen, OD600; 16 h; inhibition, % (no concentration beside the values); 330,000 tested, 0.33% active;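 active = z-score of -3 or lower and OD600 up to 0.18 on both plates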;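 also: plate controls were untreated cells for no effect and reference antibiotic for full effect; stock transfer was 100 nL into about 80 µL; one replicate is shown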
ugtP null kill: growth inhibition of ugtP-null S. aureus, primary screen, RN4220 ugtP deletion, OD600 | 16 h; some inactives read as strong as hits | growth inhibition, % (concentration not given with the values) | 330,000 tested, 0.54% active;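 active = z-score under -3 and OD600 up to 0.15 on both plates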;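 also: plate controls were untreated wells for no effect and antibiotic for full effect; wells of about 80 µL received 100 nL stock; the first replicate is given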
Mtb hypoxia rep: PubChem AID 1159583; 300,000 tested, 0.1% active; fluorescence inhibition, % (test concentration not listed); M. tuberculosis hypoxia-regulated fluorescent reporter, fluorescence;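 active = 35 to 45% if threefold the growth effect, above 45% if 1.5-fold the growth effect; inactive = the rest, general growth blockers included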;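 also: wells of about 50 µL received 100 nL stock; 0% = vehicle wells and 100% = reference inhibitor wells; whole bacteria with a GFP reporter of the hypoxia response; strong numbers were not always called active; many hits fall short of the cut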
Mtb hypoxia rep growth: recorded beside Mtb hypoxia rep, whose call it bears; growth inhibition, %; measured here: M. tuberculosis growth (absorbance);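 0% = vehicle and 100% = reference antibiotic; read after six days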
* marks the source's active call; other numbers are inactive results; ? = inconclusive; / = not tested or not shown.

Letter code – A = Bead autofluor; B = PrP UTR inh; C = BJeLR lethal; D = Sa RN4220 lethal; E = ugtP null kill; F = Mtb hypoxia rep; G = Mtb hypoxia rep growth
molecule: Cc1ccc(C=CC(=O)Nc2ccc(O)c3c(=O)cc(-c4ccccc4Cl)oc23)cc1
  A: /	B: /	C: /	D: 3.2	E: -2	F: 5	G: 1
molecule: CCOc1ccc(C(=O)Nc2ccc(S(=O)(=O)Nc3cc(C)on3)cc2)cc1
  A: 3660	B: -19	C: 7	D: 1.6	E: 17	F: 11	G: 14
molecule: CCOC(=O)CCC(NC(=O)CCCC(=O)NC(CCC(=O)OCC)C(=O)OCC)C(=O)OCC (centres undefined)
  A: 2264	B: -18	C: 0	D: 6.0	E: 7	F: 4	G: 0
molecule: O=C1CN(C(=O)COC(=O)c2ccc(Cl)cc2)c2ccccc2N1
  A: ?	B: -23	C: /	D: 2.1	E: 7	F: -4	G: -1
molecule: CSc1ccccc1NC(=O)c1ccco1
  A: 22329*	B: -25	C: 1	D: 1.7	E: 0	F: 3	G: 9
molecule: CCOc1cc2[nH]c(=O)n(CCCN3CCN(c4ccc(OC)cc4)CC3)c(=O)c2cc1OCC
  A: 4818	B: -22	C: 29	D: 2.2	E: 7	F: 9	G: 2
molecule: O=C(O)C[C@H]1c2cc(C(F)(F)F)ccc2S(=O)(=O)N1C1CCCC1
  A: 3197	B: -9	C: -3	D: /	E: /	F: /	G: /
molecule: COc1ccc(CNC(=O)c2[nH]c(C)c(C(C)=O)c2C)cc1
  A: 5463	B: -31	C: -4	D: -1.4	E: 7	F: 10	G: 7
molecule: CCN(CC)CCn1c2c(c(SCC(=O)Nc3cc(C)ccc3C)nc1=O)CCC2
  A: 5103	B: -13	C: 8	D: 5.7	E: 12	F: 4	G: 9
molecule: O=C(COC(=O)Cc1ccc(S(=O)(=O)N2CCOCC2)s1)Nc1ccc(F)cc1F
  A: 7921	B: -15	C: /	D: -2.6	E: 3	F: 4	G: 10
molecule: Clc1cccc(N2CCN(c3nnnn3-c3ccccc3)CC2)c1
  A: 3789	B: -4	C: 9	D: 9.3	E: 2	F: 0	G: -11
molecule: O=C(COC(=O)/C=C/c1ccc([N+](=O)[O-])cc1)NCc1ccccc1
  A: 1950	B: -20	C: 6	D: 5.4	E: 8	F: 4	G: 4
molecule: CCOC(=O)c1ccc(NC(=O)c2nc(S(=O)(=O)Cc3ccccc3)ncc2Cl)cc1
  A: 5026	B: -5	C: 22	D: /	E: /	F: /	G: /
molecule: NC(N)=NS(=O)(=O)c1ccc(NC(=S)NC(=O)/C=C/c2cccs2)cc1
  A: 2314	B: -14	C: -8	D: 3.4	E: 85*	F: 10	G: 18
molecule: Cc1ccc(C)c(-c2nnc(NC(=O)c3ccc([N+](=O)[O-])o3)o2)c1
  A: 5247	B: -17	C: 1	D: 6.1	E: 90*	F: /	G: /
molecule: O=C(c1ccc(F)cc1)N1CCCCC(Sc2nnnn2-c2ccccc2)C1=O (centres undefined)
  A: 3692	B: -2	C: 8	D: 0.8	E: -5	F: /	G: /
molecule: C=CCOc1ccc(CNc2ccc(NC(=O)CC(C)C)cc2)cc1OC
  A: 2030	B: -23	C: 5	D: 1.1	E: 4	F: 5	G: 4
molecule: CC1=NN(C(N)=S)C(=O)C1N=Nc1ccccc1C (centres undefined)
  A: 3370	B: -18	C: -2	D: 25	E: 11	F: 25	G: -15
molecule: COc1cc(/C=C2/C(=N)N3C(=NC2=O)SN=C3S(C)(=O)=O)ccc1OC(=O)c1ccco1
  A: 6157	B: -19	C: -7	D: 6.4	E: 7	F: 10	G: 6
molecule: CCSc1nnc(-c2ccc(S(=O)(=O)N3CCCC3)cc2)n1C
  A: 9527	B: -17	C: 2	D: 5.7	E: 3	F: -3	G: -6
molecule: C=CCOc1ccccc1CNc1ccccc1C
  A: 2604	B: -15	C: 1	D: 3.4	E: 15	F: -2	G: -3
molecule: COc1ccc(NC(=S)NC2CCCCCC2)c(OC)c1
  A: 2527	B: -42	C: -9	D: 6.2	E: -1	F: -2	G: -1
molecule: COc1ccc(CCN=C(C)c2cc(C)c(C)cc2O)cc1OC
  A: 3642	B: -6	C: 1	D: 0.2	E: 1	F: 13	G: 3
molecule: O=C(NCCOc1ccccc1F)c1ccccc1SCc1ccc(F)cc1
  A: 9937	B: -101	C: 2	D: /	E: /	F: /	G: /
molecule: CCN(CC)S(=O)(=O)c1ccc(OC)c(NC(=S)Nc2cc(C)ccc2C)c1
  A: /	B: /	C: -12	D: 12	E: -2	F: 2	G: 0

Some of the entries above, set out differently:
> C=CCOc1ccc(CNc2ccc(NC(=O)CC(C)C)cc2)cc1OC
  Bead autofluor: 2030
  PrP UTR inh: -23
  BJeLR lethal: 5
  Sa RN4220 lethal: 1.1
  ugtP null kill: 4
  Mtb hypoxia rep: 5
  Mtb hypoxia rep growth: 4
> CC1=NN(C(N)=S)C(=O)C1N=Nc1ccccc1C (centres undefined)
  Bead autofluor: 3370
  PrP UTR inh: -18
  BJeLR lethal: -2
  Sa RN4220 lethal: 25
  ugtP null kill: 11
  Mtb hypoxia rep: 25
  Mtb hypoxia rep growth: -15
> COc1cc(/C=C2/C(=N)N3C(=NC2=O)SN=C3S(C)(=O)=O)ccc1OC(=O)c1ccco1
  Bead autofluor: 6157
  PrP UTR inh: -19
  BJeLR lethal: -7
  Sa RN4220 lethal: 6.4
  ugtP null kill: 7
  Mtb hypoxia rep: 10
  Mtb hypoxia rep growth: 6
> CCSc1nnc(-c2ccc(S(=O)(=O)N3CCCC3)cc2)n1C
  Bead autofluor: 9527
  PrP UTR inh: -17
  BJeLR lethal: 2
  Sa RN4220 lethal: 5.7
  ugtP null kill: 3
  Mtb hypoxia rep: -3
  Mtb hypoxia rep growth: -6

Some entries already given with just BJeLR lethal:
SMILES	BJeLR lethal
O=C(c1ccc(F)cc1)N1CCCCC(Sc2nnnn2-c2ccccc2)C1=O (centres undefined)	8
C=CCOc1ccccc1CNc1ccccc1C	1
CCOC(=O)c1ccc(NC(=O)c2nc(S(=O)(=O)Cc3ccccc3)ncc2Cl)cc1	22
NC(N)=NS(=O)(=O)c1ccc(NC(=S)NC(=O)/C=C/c2cccs2)cc1	-8

More structures follow:
Letter code – A = Bead autofluor; B = PrP UTR inh; C = BJeLR lethal; D = Sa RN4220 lethal; E = ugtP null kill; F = Mtb hypoxia rep; G = Mtb hypoxia rep growth
molecule: CCOC(=O)c1cc(NC(=O)N(C)C2CCCCC2)c(C)nc1C
  A: 4401	B: -24	C: -7	D: 0.8	E: -1	F: -1	G: 0
molecule: Cc1cc(=O)oc2cc(OCC(=O)N3CCN(Cc4ccc5c(c4)OCO5)CC3)ccc12
  A: 4701	B: -3	C: 7	D: 0.4	E: 8	F: 7	G: -11
molecule: O=C(/C=C/c1cccs1)NCc1cccs1
  A: 6360	B: /	C: 3	D: 7.6	E: 14	F: /	G: /
molecule: O=C1NC(=O)C(CCc2ccncc2)(C2CCCCC2)C(=O)N1
  A: 2577	B: -139	C: 10	D: 0.3	E: 3	F: /	G: /
molecule: C=C1[C@H](C)CN[C@H]1CCO
  A: 3103	B: -12	C: /	D: 2.3	E: 6	F: -4	G: 0
molecule: CCOC(=O)Cn1c(N)c(C(=O)OC)sc1=S
  A: 10227	B: -7	C: 9	D: 20	E: -11	F: -1	G: -8
molecule: Cc1ccc2nc(-c3ccc(Br)o3)oc(=O)c2c1
  A: 11240	B: /	C: 1	D: 4.0	E: -5	F: 2	G: 10
molecule: COC(=O)c1cc(NC(=O)c2ccccc2)c(=O)oc1C
  A: 4221	B: -27	C: -3	D: 0.1	E: 5	F: 2	G: -2
molecule: Cc1ccc(C(=O)NNC(=O)CCC(=O)NCc2ccccc2)cc1Br
  A: 6471	B: -6	C: /	D: 3.5	E: 5	F: 13	G: 6
molecule: Cn1c(=O)[nH]c(=O)c2c1nc(CN1CCOCC1)n2CCCO
  A: 10591	B: /	C: -2	D: 3.4	E: -1	F: 7	G: 4
molecule: NC1=NC(=O)C(Cc2ccccc2)S1 (centres undefined)
  A: ?	B: -9	C: 5	D: 2.2	E: -5	F: -4	G: -3
